Source: PubChem BioAssay (Broad Institute)
DUX4 txn inh = DUX4-mediated transcription inhibition; activity change, negative = inhibition, % (concentration not given with the values); 0.8% of 37,000 active; AID 1224904; 293T-iDUX4 ZSCAN4-Gaussia luciferase reporter, 24 h; hits give low values;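 active = -10% or lower and over 25 points stronger than a control reporter; inconclusive = -10% or lower with a smaller gap; inactive = above -10%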;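 also: 0% = median of neutral control wells and -100% = median of positive control wells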
DUX4 txn inh difference = further read-out of DUX4 txn inh, marked with its call; Gaussia minus Italica difference, %; measured here: selective DUX4 reporter inhibition;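 worked out from the two reporters; negative = selective loss of the DUX4 reporter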
DUX4 txn inh control = recorded beside DUX4 txn inh, whose call it bears; activity change, negative = inhibition, %; measured here: Italica tet-on control reporter;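 0 = neutral control and -100 = positive control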
The depositor's hits bear a star; ? = inconclusive; / = no result given; & = joins results of further samples. An excerpt; rates above refer to the full screens.

SMILES | DUX4 txn inh | DUX4 txn inh difference | DUX4 txn inh control
COc1cccc(CN2[C@@H](CO)[C@@H]3c4ccccc4N(C(=O)c4ccncc4)C[C@@H]32)c1 | 1 | -5 | 5.8
CC(=O)NC[C@H]1[C@H](c2ccccc2)[C@@H](CO)N1C(=O)Cc1ccncc1 | -7 | -5 | -1.2
CN(C)C(=O)c1cccc(-c2ccc([C@H]3[C@H](CO)N4C(=O)CN(C(=O)C5CCC5)C[C@@H]34)cc2)c1 | 9 | -3 | 13
O=C(C[C@@H]1C=C[C@H](NC(=O)C2CCC2)[C@H](CO)O1)NCc1ccccc1Cl | -6 | -2 | -3.8
COCC(=O)Nc1ccc2c(c1)[C@@H]1C[C@H](CC(=O)NCc3ccccc3F)O[C@H](CO)[C@@H]1O2 | -1 | 5 | -6.6
O=C(C[C@@H]1CC[C@H]2[C@@H](COC[C@@H](O)CN2Cc2cc(F)ccc2F)O1)N1CCc2ccccc2C1 | -7 | 0 | -6.5
O=C([C@H]1N[C@H]2c3ccc(-c4ccccc4)c(=O)n3C[C@H]2[C@@H]1CO)N1CCOCC1 | 2 | 3 | -0.9
O=C(Cc1ccccn1)N1CC(=O)N2[C@H](C1)[C@@H](c1ccc(C#CCC3CCCC3)cc1)[C@@H]2CO | -10 | 11 | -21
CC(C)C(=O)Nc1ccc2c(c1)C(=O)N(C)[C@H]1CC[C@H](CC(=O)NCCCN(C)C)O[C@@H]1CO2 | 3 | 2 | 1.1
COc1cccc(CN2[C@@H]3CNC[C@H]2C3c2ccc(-c3cccnc3)cc2)c1 (stereo partly specified) | 17 | 17 | 0.6
CCCN1[C@@H]2Cn3c(ccc(-c4ccc(F)cc4)c3=O)[C@H]1[C@@H](C(=O)NCC1CC1)[C@@H]2CO | -4 | -9 | 4.9
O=C(Nc1ccc(F)cc1)N1CCCCN2[C@@H](CO)[C@@H](c3ccc(C#CC4CC4)cc3)[C@@H]2C1 | ? | / | /
O=C(C[C@H]1C[C@H]2c3cc(NC(=O)c4ccc5c(c4)OCO5)ccc3O[C@H]2[C@@H](CO)O1)NCc1cccnc1 | 9 | 7 | 2.1
C[C@@H]1CN([C@H](C)CO)C(=O)c2cc(N(C)C)ccc2O[C@H]1CN(C)Cc1ccc(Oc2ccccc2)cc1 | 7 | 3 | 3.8
O=C(C[C@@H]1C[C@@H]2c3cc(NC(=O)c4ccc5c(c4)OCO5)ccc3O[C@@H]2[C@H](CO)O1)NCc1cccnc1 | 13 | 19 | -6.6
O=C(c1cccnc1)N1CC(=O)N2[C@H](C1)[C@@H](c1ccc(C#CCC3CCCC3)cc1)[C@@H]2CO | ? | / | /
CCCNC(=O)C[C@@H]1CC[C@@H]2[C@H](COC[C@H](O)CN2S(=O)(=O)c2ccc(Oc3ccccc3)cc2)O1 | -4 | -1 | -2.6
O=C(Nc1ccc2c(c1)[C@@H]1C[C@@H](CC(=O)N3CCOCC3)O[C@@H](CO)[C@@H]1O2)Nc1ccccc1F | 7 | 6 | 0.8
O=C(Nc1ccccc1F)N1CCCCN2[C@H](CO)[C@@H](c3ccc(/C=C/c4ccccc4)cc3)[C@@H]2C1 | ? | / | /
O=C(C[C@H]1C[C@@H]2c3cc(NC(=O)NC4CCCC4)ccc3O[C@@H]2[C@@H](CO)O1)NCc1ccccc1F | 6 | 5 | 1.1

Random excerpt: 2 compounds from above.
SMILES | DUX4 txn inh | DUX4 txn inh difference | DUX4 txn inh control
O=C(Nc1ccc2c(c1)[C@@H]1C[C@@H](CC(=O)N3CCOCC3)O[C@@H](CO)[C@@H]1O2)Nc1ccccc1F | 7 | 6 | 0.8
O=C(c1cccnc1)N1CC(=O)N2[C@H](C1)[C@@H](c1ccc(C#CCC3CCCC3)cc1)[C@@H]2CO | ? | / | /

Continued:
SMILES | DUX4 txn inh | DUX4 txn inh difference | DUX4 txn inh control
N#Cc1cccc(-c2ccc3c(c2)[C@H]2[C@H](CCN2C(=O)c2ccc4c(c2)OCO4)[C@H](CO)N3)c1 | ? | / | /
O=C(C[C@H]1CC[C@@H]2NC[C@@H](O)COC[C@H]2O1)NCCc1ccncc1 | 3 | -2 | 4.5
COCCN(C[C@H]1[C@H](c2ccccc2)[C@@H](CO)N1C(C)=O)C(=O)c1ccccc1 | -3 | -2 | -0.9
CCCNC(=O)N1C[C@@H]2[C@H](c3ccccc31)[C@H](CO)N2Cc1ccc(F)cc1 | 1 | 1 | 0.0
CCCNC(=O)N[C@@H]1C=C[C@@H](CC(=O)NCCc2ccccc2)O[C@H]1CO | 5 | 5 | -0.8
Cc1cccc(S(=O)(=O)N2[C@@H]3CNC[C@H]2C3c2ccc(-c3ccccc3C)cc2)c1 (stereo partly specified) | 8&8 | 10&13 | -2.1&-4.6
CCCNC(=O)[C@H]1[C@H](CO)[C@H]2Cn3c(cccc3=O)[C@H]2N1CC1CCCCC1 | 7 | 16 | -8.3
C/C=C/c1ccc([C@@H]2[C@H](CO)N3C(=O)CN(Cc4ccccc4)C[C@@H]23)cc1 | 26 | 24 | 1.3
N#C[C@@H]1[C@H](c2ccc(C3=CCCCC3)cc2)[C@@H](CO)N1S(=O)(=O)c1ccccc1 | -2 | -3 | 1.1
CCC(=O)Nc1ccc2c(c1)OC[C@H](C)N(C(=O)c1ccncc1)C[C@@H](C)[C@H](OC)CN(C)C2=O | 3 | -1 | 3.8
O=S(=O)(c1cccs1)N1CCCCN2[C@H](CO)[C@H](c3ccc(/C=C/c4ccccc4)cc3)[C@@H]2C1 | ? | / | /
CCCNC(=O)C[C@H]1CC[C@H]2[C@@H](COC[C@@H](O)CN2C(=O)c2ccc(F)cc2)O1 | 4 | -1 | 5.0
CCC(=O)N1CC2(C1)[C@H](c1ccccc1)[C@@H](CO)N2CCC(F)(F)F | -5 | -6 | 1.2
O=S(=O)(Cc1ccccc1)N1CCCCN2[C@H](CO)[C@@H](c3ccc(-c4ccc(F)cc4)cc3)[C@H]2C1 | ? | / | /
C[C@@H]1CCCCO[C@@H](CN(C)C(=O)CCCN(C)C)[C@H](C)CN([C@H](C)CO)C(=O)c2cc(NC(=O)Nc3cccc4ccccc34)ccc2O1 | 1 | -1 | 2.6
Cn1cnc(S(=O)(=O)N2C[C@@H]3N[C@H](C2)C3c2ccc(/C=C/c3ccccc3)cc2)c1 (stereo partly specified) | ? | 7 | -6.5
COCC(=O)N1CCC2(CC1)CN(C(=O)Cc1ccccc1)[C@@H](CO)c1c2c2ccc(OC)cc2n1C | 15 | 3 | 12
O=C(C[C@H]1CC[C@@H]2NC[C@H](O)COC[C@H]2O1)Nc1ccc(-c2ccccc2)cc1 | 1 | 0 | 0.4
O=C(C[C@@H]1C[C@@H]2c3cc(NC(=O)Nc4ccccc4F)ccc3O[C@@H]2[C@H](CO)O1)NCc1ccc(Oc2ccccc2)cc1 | -2 | -5 | 3.1
COCC#Cc1cnc2c(c1)C(=O)N([C@H](C)CO)C[C@@H](C)[C@H](CN(C)C(=O)Nc1ccccc1OC)O2 | 0 | -3 | 3.6
COc1ccc(NC(=O)N(C)C[C@H]2OCc3cnnn3CCCC(=O)N([C@H](C)CO)C[C@@H]2C)cc1 | -1 | -3 | 1.6
Cc1ccc(S(=O)(=O)Nc2ccc3c(c2)C(=O)N([C@H](C)CO)C[C@@H](C)[C@H](CN(C)Cc2ccc4c(c2)OCO4)OCCCC[C@H](C)O3)cc1 | -2 | 2 | -4.0
COc1ccc(S(=O)(=O)N2C[C@H](O)COC[C@H]3O[C@@H](CC(=O)N(C)C)CC[C@@H]32)cc1 | 4 | 2 | 2.0
O=C(NC[C@H]1[C@H](c2ccccc2)[C@@H](CO)N1C(=O)Cc1cccnc1)C1CCC1 | 2 | 2 | 0.0
Cc1noc(C)c1C(=O)N(C)C[C@@H]1OCc2ccccc2-c2c(n(C)c3ccccc23)C(=O)N([C@H](C)CO)C[C@H]1C | 11 | 3 | 8.4
CN(C)CCCNC(=O)[C@H]1[C@H](CO)[C@H]2Cn3c(ccc(-c4cccc(F)c4)c3=O)[C@@H]1N2C | -1 | -4 | 2.3
CO[C@H]1CN(C)C(=O)c2cc(NS(=O)(=O)c3ccc(Cl)cc3)ccc2OC[C@@H](C)N(C(=O)NC(C)C)C[C@H]1C | ? | / | /
O=C(C[C@H]1CC[C@@H]2[C@H](COC[C@@H](O)CN2C(=O)Nc2ccc(Cl)c(Cl)c2)O1)NC1CCC1 | 3 | -3 | 5.8
COC(=O)[C@H]1[C@H](CO)[C@H]2Cn3c(ccc(/C=C/c4ccccc4)c3=O)[C@H]2N1C(=O)c1cnccn1 | -1 | 4 | -4.6
Cc1ccc(-c2ccc3c(c2)O[C@H](CN(C)Cc2ccccn2)[C@H](C)CN([C@@H](C)CO)S3(=O)=O)cc1 | -3 | -2 | -0.6
C[C@H](CO)N1C[C@H](C)[C@@H](CN(C)CC2CCCCC2)OCCCC[C@H](C)Oc2ccc(NC(=O)CCCCCC(=O)Nc3ccccc3N)cc2C1=O | -2 | -1 | -0.9
O=C(C[C@H]1C=C[C@H](NC(=O)c2ccccn2)[C@H](CO)O1)NCc1cccc(F)c1 | 2 | 0 | 1.8
C[C@@H]1CN([C@H](C)CO)C(=O)c2c(c3ccccc3n2C)-c2ccccc2CO[C@H]1CN(C)Cc1ccc(Oc2ccccc2)cc1 | -4 | -1 | -2.8
CCCNC(=O)N1[C@H](CO)[C@@H]2c3ccccc3N(C(=O)C3CCC3)C[C@@H]21 | 5 | 1 | 3.9
O=C(CC1CC1)Nc1ccc2c(c1)[C@@H]1C[C@H](CC(=O)N3CCCCC3)O[C@H](CO)[C@@H]1O2 | 8 | 2 | 6.5
O=C(C[C@@H]1CC[C@H]2[C@@H](COC[C@H](O)CN2Cc2cccc(C(F)(F)F)c2)O1)NCc1ccncc1 | -6 | -3 | -3.6
CO[C@@H](CN(C)S(=O)(=O)c1ccc(C)cc1)[C@H](C)CN(Cc1ccccc1Cl)[C@H](C)CO | -6 | -3 | -2.9
O=C(c1ccc2c(c1)OCO2)N1CC(=O)N2[C@@H](CO)[C@H](c3ccc(C#CC4CCCC4)cc3)[C@@H]2C1 | ? | / | /
COc1ccc2c3c([nH]c2c1)[C@H](CO)N(C(=O)c1ccccc1)CC31CCN(C(=O)Nc2cccc(F)c2)CC1 | ? | / | /
O=C(O)C[C@@H]1CC[C@H]2[C@@H](COC[C@@H](O)CN2S(=O)(=O)c2ccc(F)cc2)O1 | 7 | 4 | 2.4
Cc1ccccc1-c1ccc([C@H]2[C@@H](CO)N3CCCCN(C(=O)c4cccnc4)C[C@@H]23)cc1 | 4 | -3 | 7.0
CO[C@@H]1CN(C)C(=O)c2cc(NS(C)(=O)=O)ccc2OC[C@H](C)N(Cc2cncnc2)C[C@H]1C | 4 | 0 | 4.0
COc1ccccc1CNC(=O)C[C@@H]1C[C@@H]2c3cc(NC(=O)Nc4ccccc4F)ccc3O[C@@H]2[C@@H](CO)O1 | 7 | 1 | 6.0
COCC(=O)N1[C@H](CO)[C@@H](c2ccc(C3=CCCCC3)cc2)[C@@H]1C#N | -3 | -1 | -1.9
Cc1noc(C)c1NC(=O)Nc1ccc2c(c1)C(=O)N([C@H](C)CO)C[C@H](C)[C@@H](CN(C)Cc1ccc3c(c1)OCO3)OCCCC[C@@H](C)O2 | 0 | -2 | 1.7
COc1cccc(C(=O)Nc2ccc3c(c2)C(=O)N(C)[C@H]2CC[C@@H](CC(=O)N[C@H](C)c4ccccc4)O[C@H]2CO3)c1 | -1 | -2 | 0.4
CCCC#Cc1ccc([C@@H]2[C@@H](CO)N3C(=O)CN(C(=O)NC4CCCC4)C[C@@H]23)cc1 | 0 | -6 | 6.4
COc1ccc(C[C@H]2CCc3cnnn3COC[C@@H](C)NC2=O)cc1 | -2 | -1 | -1.6
COc1ccc(NC(=O)Nc2ccc3c(c2)C(=O)N([C@@H](C)CO)C[C@H](C)[C@H](CN(C)C(=O)NC2CCCCC2)OCCCC[C@@H](C)O3)cc1 | -2 | -1 | -0.6
CCC(=O)N1[C@@H](CO)[C@@H](c2ccccc2)C12CN(Cc1ccccc1Cl)C2 | -3 | -5 | 2.8
Later entries:
SMILES | DUX4 txn inh | DUX4 txn inh difference | DUX4 txn inh control
O=C(N[C@@H]1C=C[C@H](CC(=O)N2CCC(Cc3ccccc3)CC2)O[C@H]1CO)c1cnccn1 | -3 | -3 | 0.3
O=C(O)C[C@H]1CC[C@H](NC(=O)c2ccccc2F)[C@H](CO)O1 | 4 | -1 | 4.5
CCC(=O)N(C[C@H]1[C@H](c2ccccc2)[C@@H](CO)N1S(C)(=O)=O)C(C)C | 4 | 0 | 3.4
CN(C)c1ccc2c(c1)[C@H]1C[C@H](CC(=O)NCCc3ccccc3)O[C@@H](CO)[C@H]1O2 | 7 | 2 | 4.7
COCCNC(=O)C[C@H]1CC[C@@H]2[C@H](COC[C@@H](O)CN2C(=O)Nc2ccc3c(c2)OCO3)O1 | -3 | 0 | -2.4

Ordered by heavy-atom count (descending): part of the list above
SMILES | DUX4 txn inh | DUX4 txn inh difference | DUX4 txn inh control
COc1ccc(NC(=O)Nc2ccc3c(c2)C(=O)N([C@@H](C)CO)C[C@H](C)[C@H](CN(C)C(=O)NC2CCCCC2)OCCCC[C@@H](C)O3)cc1 | -2 | -1 | -0.6
COc1cccc(C(=O)Nc2ccc3c(c2)C(=O)N(C)[C@H]2CC[C@@H](CC(=O)N[C@H](C)c4ccccc4)O[C@H]2CO3)c1 | -1 | -2 | 0.4
COCCNC(=O)C[C@H]1CC[C@@H]2[C@H](COC[C@@H](O)CN2C(=O)Nc2ccc3c(c2)OCO3)O1 | -3 | 0 | -2.4
CN(C)c1ccc2c(c1)[C@H]1C[C@H](CC(=O)NCCc3ccccc3)O[C@@H](CO)[C@H]1O2 | 7 | 2 | 4.7
CCC(=O)N1[C@@H](CO)[C@@H](c2ccccc2)C12CN(Cc1ccccc1Cl)C2 | -3 | -5 | 2.8
COc1ccc(C[C@H]2CCc3cnnn3COC[C@@H](C)NC2=O)cc1 | -2 | -1 | -1.6
O=C(O)C[C@H]1CC[C@H](NC(=O)c2ccccc2F)[C@H](CO)O1 | 4 | -1 | 4.5
